# Screening data as filed in PubChem BioAssay.
# Sa helicase inh: inhibitors of S. aureus replicative helicase, primary screen, biochemical, fluorescence unwinding readout | replicative DNA helicase (DnaC/DnaB), Staphylococcus aureus | purified S. aureus helicase, fluorescence unwinding assay; about half of the hits fall short of the stated cut | inhibition, %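 (tested at about 80 µM)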 | 0.05% of 120,000 active;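 active = both duplicates at 50% or more, or one of them with a favoured structure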;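 also: 0% = mean of negative control wells and 100% = mean of positive control wells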
# MgrA DNA FP: S. aureus MgrA activity modulators, primary screen, biochemical, S. aureus Newman, fluorescence polarization | MgrA-DNA binding | inhibition, %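 (about 10 µg/mL by stock and volumes)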 | 0.13% of 84,000 active | AID 602314, 2012;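 active = above 50% in either of two replicates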;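 also: 0% = protein plus DNA without compound and 100% = DNA alone without protein; higher means less MgrA bound to DNA so lower polarization; one replicate is shown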
# Starred values were filed as active, the others as inactive; . = not tested or not shown; & = joins results of further samples.
SMILES,Sa helicase inh,MgrA DNA FP
CCn1c(SCc2ccc(C)cc2)nnc1-c1ccc(S(=O)(=O)N2CCOCC2)cc1,3.0,-0.2
O=C(CSc1nnnn1C1CC2C=CC1C2)Nc1cccc(C(=O)O)c1 (stereo not drawn),-8.0,1.0
COc1cc(-c2cc(C(F)(F)F)n3ncc(C(=O)Nc4cc(C)ccc4O)c3n2)cc(OC)c1OC,.,-1.2
COc1ccc(C2C(C(=O)O)c3ccccc3C(=O)N2C)cc1 (stereo not drawn),5.0,.
Cc1cccc(OCCCn2ccnc2)c1,-4.0,.
CCc1ccc2cc(CNC3CCCCC3)c(=O)[nH]c2c1,4.0,.
NC(=O)C1CCCN(Cc2ccc3ccccc3c2)C1 (stereo not drawn),16.0,1.4
COc1cccc(/C=N/NC(=O)C2CCCN(C(=S)NNC3CC4C=CC3C4)CC2)c1O (stereo not drawn),-18.0,.
O=C(CN1C(=O)c2ccccc2C1=O)N(Cc1ccccc1)Cc1ccccc1,10.0,1.4
O=C(Cn1cnc2ccccc21)OCC(=O)N1CCCC1,-9.0,.

# The last seven records of the part above lead into the next:
SMILES,Sa helicase inh,MgrA DNA FP
COc1ccc(C2C(C(=O)O)c3ccccc3C(=O)N2C)cc1 (stereo not drawn),5.0,.
Cc1cccc(OCCCn2ccnc2)c1,-4.0,.
CCc1ccc2cc(CNC3CCCCC3)c(=O)[nH]c2c1,4.0,.
NC(=O)C1CCCN(Cc2ccc3ccccc3c2)C1 (stereo not drawn),16.0,1.4
COc1cccc(/C=N/NC(=O)C2CCCN(C(=S)NNC3CC4C=CC3C4)CC2)c1O (stereo not drawn),-18.0,.
O=C(CN1C(=O)c2ccccc2C1=O)N(Cc1ccccc1)Cc1ccccc1,10.0,1.4
O=C(Cn1cnc2ccccc21)OCC(=O)N1CCCC1,-9.0,.
CCCCC(=O)Nc1cccc(NC(=O)c2cc3ccccc3o2)c1,20.0,.
O=c1oc(-c2ccccc2)nc2ccccc12,7.0,-1.1
CCOC(=O)c1ccccc1NC(=O)N1CCC(CN2CCCC2)CC1,10.0,1.9
O=c1[nH]n(-c2ncnc3sc4c(c23)CCCC4)c(=O)c2ccccc12,-7.0,.
O=C1NC2c3ccccc3C(=O)N2c2ccccc21 (stereo not drawn),10.0,.
Cc1cc(C)cc(OC(=O)CN2C(=O)c3ccccc3C2=O)c1,7.0,.
Cc1nc(SCC(=O)NN2C(=O)NC3(CCCCC3)C2=O)c2ccccc2n1,12.0,.
O=C(OCCCN1C(=O)c2cccc3c(N4CCOCC4)ccc(c23)C1=O)c1cccc([N+](=O)[O-])c1,.,-11.1
c1ccc(-c2nc(CSc3nnc4n3CCCCC4)cs2)cc1,-13.0,.
COc1ccc([Se]c2cc(O)c3c(c2N)C(=O)c2ccccc2C3=O)cc1,.,-0.8

# Whole records, looked up by structure. Values in the order: Sa helicase inh, MgrA DNA FP
# Profile of COc1ccc(C2C(C(=O)O)c3ccccc3C(=O)N2C)cc1 (stereo not drawn) : 5.0, .
# Profile of Cc1cc(C)cc(OC(=O)CN2C(=O)c3ccccc3C2=O)c1 : 7.0, .
# Profile of CCc1ccc2cc(CNC3CCCCC3)c(=O)[nH]c2c1 : 4.0, .

# Next part.
SMILES,Sa helicase inh,MgrA DNA FP
COc1cccc(C2SCc3cc(C)c(C)cc3CS2)c1O,.,-0.5
Cc1ccc(NCc2cc(=O)[nH]c3ccccc23)cc1,8.0,9.2
O=C(Nc1c(C(=O)N2CCOCC2)oc2ccccc12)c1cccs1,9.0,.
COc1ccc(-c2cc(-c3nnc(CSc4nnc(-c5ccncc5)n4C)o3)c3ccccc3n2)cc1OC,13.0,.
NC(=O)Cn1cnc2c(cnn2CCO)c1=O,11.0,.
O=C(Cn1cc2c(n1)CCCC2)Nc1cccc(C(F)(F)F)c1,-2.0,.
O=C(CNc1ccc(C(F)(F)F)cc1)N1CCc2ccccc21,6.0,.
CC1CCN(C(=O)c2oc3ccccc3c2NC(=O)c2ccccc2F)CC1,13.0,.
CCN(CC)Cc1csc(C(N)=O)c1,5.0,.
O=C(COC(=O)CCc1ccccc1)NC12CC3CC(CC(C3)C1)C2,11.0,-1.1
O=S(=O)(Cc1ccc(Br)cc1F)c1ccccn1,.,-1.4
Cc1noc(C)c1COC(=O)Cc1c[nH]c2ccccc12,17.0,.
O=C(CCS(=O)(=O)c1cccc2nonc12)N1CCCCC1,16.0,0.6
CCCOc1ccc(C(=O)N(CC(N)=O)C(C)C)cc1,-15.0,.
CCCc1nc2cc(Cl)c(Cl)cc2nc1C,.,-1.1
O=C1NCCCCC1NS(=O)(=O)c1ccccc1 (stereo not drawn),.,-1.4
O=c1c2oc3ccccc3c2[nH]c(=S)n1Cc1cccs1,-38.0,.
COC(=O)c1sc(S(=O)(=O)NCc2ccccc2)c(C(=O)OC)c1C,7.0,1.6
C#CC(CC)(CC)NC(=O)CCc1nc2sc3c(c2c(=O)[nH]1)CCCC3,5.0,.
Cc1cc(C)c2c(N)c(C(=O)NCC3CCCCC3)sc2n1,3.0,-2.9
CC1CCC(C(=O)NC(Cc2ccccc2)C(=O)NCc2ccccn2)CC1 (stereo not drawn),-13.0,.
CNCCCc1cc(C)ccc1O,3.0,0.1
CCOc1ccc(N2C(=O)CC(SCc3nc4ccccc4[nH]3)C2=O)cc1 (stereo not drawn),-11.0,5.6
C/C(=N\NC(=O)Cc1csc(C)n1)c1ccc(C)cc1,-5.0,.
CC(C)c1cc(NC2CCCCC2)n2c(nc3ccccc32)c1C#N,-5.0,0.0
O=C1c2ccccc2C(=O)C1c1ccccc1,.,-1.4&-1.2
Brc1cccc(-c2nnc3sc(CNC4CCCC4)cn23)c1,5.0,.
CC1C(=O)CC(c2ccco2)NC1c1ccco1 (stereo not drawn),3.0,2.2
COc1ccccc1-c1n[nH]c(=S)o1,6.0,.
CC(C)c1nnc(NC(=O)C2c3ccccc3Oc3ccccc32)s1,16.0,8.2
Cc1nc2cc(N=Cc3ccc(Cl)cc3)ccc2n1Cc1ccccc1,10.0,-1.1
c1cc(OC2CCNCC2)cc(-n2cnnn2)c1,-19.0,.
COc1cccc(C(=O)NC(NCC2CCCO2)(C(F)(F)F)C(F)(F)F)c1 (stereo not drawn),6.0,0.2
O=C(CCS(=O)(=O)Cc1ccccc1)N1CCN(c2ccccc2)CC1,22.0,1.3
COc1ccc(CCNS(=O)(=O)c2cccc3cccnc23)cc1OC,-25.0,.
N#CC(c1c(Cl)cccc1N1CCCCC1)N1CCCCC1 (stereo not drawn),.,-3.3
Cc1ccc(S(=O)(=O)N(C)c2nc3ccccc3nc2N2CCCC(C(N)=O)C2)cc1 (stereo not drawn),3.0,.
S=c1n(CN2CCOCC2)nc(-c2ccccc2Br)n1-c1ccccc1,-36.0,.
O=C(NCC(c1cccnc1)N1CCOCC1)c1ccc2c(c1)OCO2 (stereo not drawn),7.0,.
O=C(CSc1nnc(-c2ccc3c(c2)OCO3)n1-c1ccccc1)NC1CCCC1,3.0,.
Cc1ccc(-c2csc(/C(C#N)=C\Nc3ccc(S(N)(=O)=O)cc3)n2)cc1,0.0,.
Cc1nnc(-c2cccc(S(=O)(=O)NCCc3ccccc3)c2)o1,3.0,.
N#CCOC(=O)C1c2ccccc2Oc2ccccc21,-6.0,.
O=C1CC(c2ccco2)CC2=C1C1c3ccccc3C(=O)N1c1ccccc1N2 (stereo not drawn),-32.0,.
COc1cccc(CN(C(=O)c2ccccc2)C2CCS(=O)(=O)C2)c1 (stereo not drawn),7.0,.
CC(=O)NCc1ccc(C(=O)CSc2nc3cc(Cl)ccc3s2)o1,-1.0,.
c1cc(-c2nc3ccccc3s2)nc(-c2nc3ccccc3s2)c1,0.0,0.9
CCOC(=O)C1CCN(c2ncnc3c2cnn3-c2cccc(C)c2)CC1,17.0,.
CCNC(=O)Cn1c(=O)c(=O)n(Cc2ccccc2)c2ccc(Cl)cc21,4.0,0.0
CNC(=O)C1Cc2cc(S(=O)(=O)N3CCCC3)ccc2N1C(C)=O (stereo not drawn),3.0,.
# Next section
SMILES,Sa helicase inh,MgrA DNA FP
CC(C)CCN(C)C1CCN(S(=O)(=O)c2cccc(Cl)c2)CC1,-4.0,-0.6
COc1ccc(-c2cc(C(=O)Nc3ccccc3)c3ccccc3n2)cc1,.,0.3
O=C(CC(SCc1ccco1)c1ccc(F)cc1)c1ccncc1 (stereo not drawn),6.0,.
COc1cc(/C=N/n2c(=O)[nH]c3ccccc3c2=O)ccc1OCC(=O)O,-3.0,.
Cc1csc2ncc(C(=O)N3c4ccccc4CC3C)c(=O)n12 (stereo not drawn),15.0,-0.6
COc1ccc(-c2nnc(SC(C)C)n2-c2ccccc2)cc1,1.0,4.5
Cc1ccc(CNC(=S)NN(C)C)cc1,.,1.6
O=C(Cc1n[nH]c(=O)c2ccccc12)Nc1nc(CN2CCOCC2)cs1,13.0,.
Cc1ccc(OCc2ccc(C(=O)Nc3nccs3)o2)cc1C,-12.0,1.2
CCN1CCN(C(c2cccs2)C(C)NC(=O)c2ccccc2)CC1 (stereo not drawn),6.0,.
O=C(COC(=O)C12CC3CC(CC(C3)C1)C2)c1ccc(Br)cc1,3.0,2.3
CC(C)OC(=O)CN1CCN(S(=O)(=O)c2ccc(C(C)C)cc2)CC1,-13.0,-0.2
CCOC(=O)c1sc2nc(N)c(C#N)c(-c3ccc(OCC)cc3)c2c1N,.,-1.7
N#Cc1nn(-c2ccccc2)c(=O)[nH]c1=O,.,-0.4
O=C(NCc1ccccc1)N(Cc1nc2ccccc2c(=O)[nH]1)C1CCCC1,-7.0,1.2
O=C(CSc1c[nH]c2ccccc12)Nc1ccccc1,8.0,.
CCc1ccccc1NC(=O)CN1CCN(C(=O)C2CCCN2S(=O)(=O)c2ccc(C)cc2)CC1 (stereo not drawn),-5.0,.
CCOC(=O)c1cccnc1SCC(=O)NC(C)CC (stereo not drawn),6.0,0.6
CC(C)(C)C(=O)CSc1nc2cc(Cl)c(Cl)cc2[nH]1,.,-1.8
COC(=O)/C=C1\SC(Cc2ccc(Cl)cc2)=NC1=O,.,3.0
CCNC(=S)NCC1CC1,.,-0.2
CCn1nc(C)c(C(C#N)N2N=C(C)CC2c2ccccc2)c1C (stereo not drawn),4.0,1.8
O=C1CCNc2ccc(C(F)(F)F)cc2N1,.,0.3
CCCNC(=O)CN,-4.0,.
CCOC(=O)C1=C(CSc2n[nH]c(N)n2)NC(=O)NC1C (stereo not drawn),-11.0,.
O/N=C/c1c(F)c(F)c(F)c(F)c1F,-11.0,.
COC(=O)C(O)(CC(=O)Nc1cccc(SC)c1)C(F)(F)F (stereo not drawn),8.0,0.6
O=C(O)CNCc1c(Cl)cccc1Cl,6.0,0.7
CN1CCOc2cc(/C=C3\C(=O)Nc4ccccc43)ccc21,.,-3.4
CC(CO)NCC12CC3CC(CC(C3)C1)C2 (stereo not drawn),-11.0,.
Cn1nnnc1NC(=O)c1ccccc1,-6.0,-0.4
Cc1ccc(/C(C#N)=C\c2cccs2)cc1,8.0,3.0
COC(=O)c1ccc(NC(=O)Cn2c(-c3cncs3)nc3ccccc32)cc1,5.0,.
C=CCN=C1NC(=O)C(CC(=O)Nc2ccc(Cl)cc2)S1 (stereo not drawn),.,1.1
C=CCc1ccc(OCc2ccccc2)c(OC)c1,19.0,-8.1
CN=c1scc(C)n1/N=C/c1c[nH]c2ccc(Br)cc12,-2.0,.
Cc1ccc2cc3cc(C(=O)NCCCN4CCCC4)oc3nc2c1,24.0,1.1
CSc1ccc(S(=O)(=O)N2CCC(C(=O)NCCN3CCOCC3)CC2)cc1,-7.0,-0.1
Nc1oc2c(CN3CCCCCC3)c(O)ccc2c(=O)c1-c1nc2ccccc2s1,19.0,-1.0
COC(=O)c1c(SCC(=O)NC2CCCCC2)[nH]c2ccccc2c1=O,-5.0,.
Cc1nn(-c2ccccc2)c(Cl)c1C(=O)N1CCN(C)CC1,-19.0,-0.6
CC(=O)Nc1c(Cl)cc(Cl)c2cccnc12,.,-1.2
CC1CCCC(C)N1C(=S)SCC(=O)O (stereo not drawn),1.0,.
CC(=NCc1ccc(C#N)cc1)c1c(C)cc(C)cc1O,18.0,.
CN(C)CCN(C(=O)CN1C(=O)c2ccccc2C1=O)c1nc2c(F)cc(F)cc2s1,1.0,-0.7
CSc1cc(-c2ccco2)[nH]c(=O)c1C#N,.,-0.9
O=C1C=C(NNC(=O)COc2cccc(F)c2)CCC1,4.0,.
COc1ccc(NC(=O)Cn2nc(Cc3ccncc3)c3ccccc3c2=O)cc1OC,8.0,.
COC(=O)/C=C/c1ccc(C(=O)NCC(=O)N[C@@H](CCC(=O)OC)C(=O)N[C@@H](CC(C)C)C(N)=O)cc1,.,3.1
CCc1nnc(NC(=O)c2sc3nc4c(cc3c2N)CCCC4)s1,5.0,-2.0
# Next compounds.
SMILES,Sa helicase inh,MgrA DNA FP
N#CCn1c(C(F)(F)F)nc2c(cnn2-c2ccccc2)c1=O,-124.0,.
CC(C)C(=O)NC(=S)Nc1ccc(-c2nc3ncccc3o2)cc1,9.0,2.5
O=C(Nc1nc2c(s1)CN(Cc1ccccc1)CC2)C1CCCCC1,9.0,-2.2
COC(=O)c1sccc1OC(=O)c1cccnc1Oc1ccccc1,.,-0.3
CN1C(=O)C(O)(CC(=O)c2ccccc2)c2ccccc21 (stereo not drawn),9.0,2.4
CCn1cc(C(=O)NCc2ccccc2)c(=O)c2cc(S(=O)(=O)N3CCCC3)ccc21,0.0,-0.8
COc1cc2c(cc1OC)C(c1ccccc1NC(=O)c1cccc(Cl)c1)=NCC2,.,-0.9
CCN(/C=C1/CCCCC1=O)C1CC2CCC1C2 (stereo not drawn),24.0,.
COC(=O)Cc1c(C)c2ccc3c(c2oc1=O)CN(Cc1cccc(OC)c1)CO3,-1.0,-1.5
O=C(O)C(C(=O)C1CC1c1ccccc1)=C1SCCS1 (stereo not drawn),9.0,.
CN(C)Cc1ccccc1CNC(=O)c1ncc(Cl)c(Cl)c1Cl,14.0,.

# These rows are one share of the data; count on the stated rates, not on these rows.
